Yeast UUG start = modulators of yeast start codon fidelity, primary screen, whole organism, S. cerevisiae, single point, plate reader | activity score, % at 18.7 µM | 350,000 compounds, 0.13% hits | AID 602363, 2012 | S. cerevisiae UUG-firefly luciferase reporter, luminescence/redox ratio;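 active means replicate mean at a twofold rise or more, about +100% in these data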;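 further: firefly luciferase made from a UUG start codon reports start codon fidelity; reporter light over untreated wells divided by growth signal over untreated wells; some hits fall short of that in this replicate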
Env fusion inh = inhibitors of HIV-1 Env-driven cell-cell fusion, primary screen, HeLa-JRFL effector, CEM21 target cells, luciferase | inhibition, % at 12.3 µM | 360,000 compounds, 1.1% hits | AID 651610, 2012;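 active means mean replicate inhibition score of at least 50 and every replicate individually at or above 50; inconclusive means only one of the two criteria met; inactive means mean below 50 and not all replicates reaching 50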;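 further: 0% = plate neutral controls and 100% = maraviroc near 300 nM; one replicate is shown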
MT1-MMP act inh = blockers of MT1-MMP proenzyme processing, primary screen, HT1080 RFP-PRO-GFP cells, GFP/RFP fluorescence; GFP/RFP ratio fluorescence, overnight; percent of plate control window, DMSO zero; GFP/RFP ratio change, % at 20 µM; 360,000 compounds, 0.061% hits; AID 651647, 2012;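 active means GFP/RFP ratio change of at least 30% with cell ATP level not reduced by more than half and red fluorescence within 50% of control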; further: strong numbers were not always called active
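system = RFP-PRO-GFP reporter HT1080 cells | dosing = 20 µM single dose, 1% DMSO | timing = overnight cell settling, then overnight compound exposure, 37 °C, 5% CO2 | read-out basis = GFP/RFP fluorescence ratio | controls = DMSO and RFP-L50D-GFP cell wells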
eIF4H FP inh = human eIF4H binding inhibitors, primary screen, translation initiation inhibitor project, biochemical, uHTS, fluorescence polarization. Eukaryotic translation initiation factor 4H (Homo sapiens), Q15056. eIF4H fluorescence polarization binding assay. inhibition, % at 35 µM. 290,000 compounds, 0.94% hits. AID 2012, 2009;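 active means 50% or more with normal probe brightness, or confirmed in later tests; inconclusive means above 50% with abnormal brightness, or retests that disagree; inactive means below 50% or failed in later tests; about a fifth of its hits are not listed in these tables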;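 further: calls also rest on retests at 20 µM and on dose response follow-up; 0% = protein and probe with vehicle and 100% = probe without protein; strong numbers were not always called active; many hits fall short of the cut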
CSC inhib = cancer stem cell viability inhibitors, primary screen, luminescence; cancer stem cell-like cells viability; inhibition, % at 7.5 µM; 300,000 compounds, 1.1% hits;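 active means mean at 75% or more and at least half the replicates too; inconclusive means mean and replicates disagree; tested in HMLE shEcad cells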;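 further: 0% = median of negative and 100% = median of positive control wells; the first replicate is given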
Rce1 inh = yeast Rce1p protease inhibitors, primary screen, biochemical, fluorescence, cell-free homogeneous | CAAX prenyl protease 2 (Saccharomyces cerevisiae (strain ATCC 204508 / S288c)), Q03530 | yeast membranes, quenched prenylated peptide cleavage fluorescence | calls only | 290,000 compounds, 0.27% hits;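 active means fall in fluorescence gain of 50% or more versus controls, with final raw signal at or below 3038400; inconclusive means same 50% fall but final raw signal above 3038400; inactive means fall in fluorescence gain under 50%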;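 further: plate controls were neutral control wells for no effect and wells lacking membranes for full effect; tested at 10 µM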
Target sequence (Q03530 whole entry, looked up): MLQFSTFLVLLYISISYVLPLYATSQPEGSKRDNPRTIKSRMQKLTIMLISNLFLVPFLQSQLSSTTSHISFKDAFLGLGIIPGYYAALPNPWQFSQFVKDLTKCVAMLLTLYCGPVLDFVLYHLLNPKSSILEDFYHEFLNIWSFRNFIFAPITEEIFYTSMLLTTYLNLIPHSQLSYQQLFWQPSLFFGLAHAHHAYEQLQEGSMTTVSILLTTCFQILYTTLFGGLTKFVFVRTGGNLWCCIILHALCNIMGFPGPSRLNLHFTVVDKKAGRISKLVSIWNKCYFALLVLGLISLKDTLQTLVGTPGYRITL
PABP polyA inh = PABP poly(A) RNA binding inhibitors, primary screen, biochemical, fluorescence polarization, uHTS; 290,000 compounds, 1% hits; inhibition, % at 35 µM;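 active means 50% or more with normal probe brightness, or confirmed in later tests; inconclusive means above 50% with abnormal brightness, or retests that disagree; inactive means below 50% or failed in later tests; about a fifth of its hits are not listed in these tables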;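 further: calls also rest on retests at 20 µM and on dose response follow-up; controls were probe without protein and protein plus probe with vehicle; some compounds called inactive have numbers as strong as hits; many hits fall short of the cut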
Target sequence (P11940 whole entry, looked up): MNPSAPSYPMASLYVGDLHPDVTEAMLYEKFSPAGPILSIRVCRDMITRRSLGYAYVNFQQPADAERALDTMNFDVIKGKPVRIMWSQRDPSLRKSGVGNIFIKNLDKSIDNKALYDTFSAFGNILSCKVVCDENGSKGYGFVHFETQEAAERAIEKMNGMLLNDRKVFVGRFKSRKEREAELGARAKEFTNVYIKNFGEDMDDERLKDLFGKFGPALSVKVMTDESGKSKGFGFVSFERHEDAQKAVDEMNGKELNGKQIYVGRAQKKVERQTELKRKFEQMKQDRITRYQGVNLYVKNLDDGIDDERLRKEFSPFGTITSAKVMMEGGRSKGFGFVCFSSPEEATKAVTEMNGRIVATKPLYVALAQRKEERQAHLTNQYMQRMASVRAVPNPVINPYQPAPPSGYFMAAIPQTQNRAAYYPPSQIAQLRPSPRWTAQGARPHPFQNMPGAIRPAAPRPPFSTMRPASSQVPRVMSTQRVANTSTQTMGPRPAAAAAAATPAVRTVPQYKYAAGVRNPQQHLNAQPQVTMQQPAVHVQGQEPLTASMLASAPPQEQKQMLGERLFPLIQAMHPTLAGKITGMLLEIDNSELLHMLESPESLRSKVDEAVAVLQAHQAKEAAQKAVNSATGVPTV
eIF4H FP inh retest = also measured in eIF4H FP inh; calls as there; inhibition, %; compound at 20 µM; confirmation average;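 mean of two retest wells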
PABP polyA inh retest = further read-out of PABP polyA inh, marked with its call; inhibition, %; compound at 20 µM; confirmation repeats;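 mean of two retest wells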
MT1-MMP act inh RFP = also measured in MT1-MMP act inh; calls as there; RFP signal change, %; measured here: RFP expression control read;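 0 = vehicle wells; hits needed this value within 50% of zero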
Active calls of the source: *; i = inactive; u = inconclusive; x = no result given; & = joins results of further samples; [ ] = dose if it differs, or a comment. Not all compounds are listed, so the mix of outcomes need not match the whole.

SMILES | Yeast UUG start | Env fusion inh | MT1-MMP act inh | MT1-MMP act inh RFP | eIF4H FP inh | CSC inhib | Rce1 inh | PABP polyA inh | others
O=c1oc2cc([N+](=O)[O-])ccc2nc1/C=C(O)/C=C/c1ccccc1 | x | x | x | x | 72* | 11 | i | 28 | eIF4H FP inh retest=72*;PABP polyA inh retest=42
COC(=O)c1ccccc1NC(=O)Cn1c(-c2nonc2N)nc2ccccc21 | -16 | x | 6 | -6 | -13 | x | i | -4
FC(F)(F)c1cccc(NC(=S)NCC2COc3ccccc3O2)c1 (stereo unspecified) | -22 | -20 | 2 | -3 | -6 | 31 | i | 2
COc1ccc(N2CCN(CCCNC(=O)C(=O)c3c[nH]c4ccccc34)CC2)cc1 | -8 | 15 | 2 | -5 | -1 | -11 | i | -4
Cc1onc(-c2c(F)cccc2Cl)c1C(=O)Nc1nccs1 | -16 | 5 | -1 | 0 | -2 | x | i | -5
C(=N\NCc1ccccc1)/c1ccc2ncccc2c1 | -14 | -19 | 1 | -2 | -3 | 1 | i | -3
COc1ccccc1CC(NC(C)=O)C(=O)NC1CCN(C(=O)NCc2ccccc2)CC1 (stereo unspecified) | x | 13 | -1 | -1 | -4 | x | i | 1
CCC(=O)NC(=S)Nc1ccc(NC(=S)NC(=O)c2ccccc2)cc1 | x | 17 | 1 | 3 | -2 | x | i | 0
Cc1oc(-c2cccs2)nc1CS(=O)CC(=O)NCCc1ccccc1 (stereo unspecified) | -11 | -23 | -4 | 0 | 5 | 18 | i | 16
O=C(Cc1ccccc1)NCC(=O)OC(c1ccccc1)c1ccccc1 | x | 6 | -1 | 1 | -7 | -23 | i | 0
CC(C)C1C(C#N)=C(N)Oc2n[nH]c(-c3ccc4ccccc4c3)c21 (stereo unspecified) | -21 | x | -5 | -11 | -1 | 17 | i | -3
COc1ccc(CCN(C)C(=O)CSc2nccn2C)cc1OC | -21 | -28 | -4 | 5 | 4 | -10 | i | 0
Cc1cc(NC(=O)COC(=O)[C@@H]2CCCN2C(=O)c2cccs2)no1 | 11 | u | 0 | -3 | x | x | x | x
O=C(Cc1ccccc1[N+](=O)[O-])N1CCOCC1 | -20 | -9 | -2 | 1 | -6 | x | i | 3
C#CCOCCOCCOCCNc1nc(N2CCN(C(=O)[C@H](C)n3cc(CCC(=O)O)nn3)CC2)nc(N2CCN(C(=O)[C@H](CCCCN)n3cc(CCCC)nn3)CC2)n1 | 51 | -9 | 2 | 2 | x | x | x | x
C=CCn1c(Cc2csc(N)n2)nnc1SCC(=O)OCC | x | x | -1 | 7 | -7 | 8 | i | -2
O=C(Nc1cc(Cl)cc(Cl)c1)N[C@@H]1CC[C@@H](CCNS(=O)(=O)c2cccc(F)c2)O[C@@H]1CO | 6 | -5[16.7 µM] | -1 | -9 | x | x | x | x
O=C(O)C1CCN(Cc2ccccn2)CC1 | x | 13 | -1 | 2 | -11 | 13 | i | -16
O=C(NC1CC1)C1Nc2ccc(OC(F)(F)F)cc2C2C=CCC12 (stereo unspecified) | -6 | -54 | 5 | -4 | x | 1 | i | x
C1CCCCCC(NCCN2CCNCC2)CCCCC1 | x | 22 | 3 | 4 | 4 | 45 | i | -1
CC1CCN(C2=C(NS(=O)(=O)c3ccc(Cl)cc3)C(=O)c3ccccc3C2=O)CC1 | 1 | 1 | 8 | 7 | -5 | 32 | i | 9
O=c1cc(Cl)[nH]c(=O)n1Cc1ccc(F)cc1 | -8 | 2 | -1 | 2 | -1 | 24 | i | -6
CN(C)c1ccccc1C(=O)N1CCCC(Nc2ccc(F)cc2)C1 (stereo unspecified) | -10 | 10 | -2 | -1 | 0 | 4 | i | -7
COc1ccc(NC(=O)CCC(=O)N/N=C/c2cccnc2)cc1 | -15 | 6 | 2 | 3 | -11 | -3 | i | 2
CC(Oc1ccc(Br)cc1)C(=O)NC1CCN(Cc2ccccc2)CC1 (stereo unspecified) | -11 | -19 | -1 | -3 | x | 8 | i | x
COc1ccc(NC(=O)CN(C)CC(=O)NCCc2ccc(F)cc2)cc1 | 3 | -5 | -2 | -3 | x | x | x | x
Cc1cccc(CS(=O)(=O)c2ncc(Cl)c(C(=O)Nc3c(C)cccc3C)n2)c1 | -22 | 34 | -5 | 3 | -8 | x | i | -1
CC(Nc1cc(N2CCNCC2)ccc1[N+](=O)[O-])c1ccccc1 (stereo unspecified) | x | -52 | -3 | -4 | 1 | 14 | i | -3
CCCCN(C)S(=O)(=O)c1ccc(C(=O)N(CCN(C)C)c2nc3ccc(C)cc3s2)cc1 | -8 | 1 | 5 | 9 | -17 | -9 | x | -16
CCOc1ccc(CN(C)C(=O)[C@H](C)NC(=O)c2ccco2)cc1OC | -17 | 5 | -1 | -4 | -17 | -15 | i | -6
COc1ccc(C2=NOC(Cn3nc(-c4ccccc4)cc3C(=O)NCc3ccccc3OC)C2)cc1 (stereo unspecified) | -8 | -6 | -1 | -2 | x | x | x | x
COc1cc(/C=N/NC(=O)c2ccncc2)ccc1O | -17&-19 | 10&1 | 2&-1 | 5&2 | -2 | -9&-5 | i | 4
Cc1cc(C)c(C(=O)CSc2nc3ccccc3c(=O)[nH]2)cc1C | x | 0 | -2 | 1 | -1 | 62 | i | -2
COc1ccc(NS(=O)(=O)c2cccc(C(=O)NCC(c3ccco3)N3CCCC3)c2)cc1 (stereo unspecified) | x | 23 | 0 | -4 | x | -17 | i | x
COC(=O)c1nc(NC(=O)c2ccc(F)cc2)n[nH]1 | x | 23 | -1 | 5 | 5 | x | i | -3
O=C(OCc1ccccc1)N1CCC2CC1c1c(Cl)cccc12 (stereo unspecified) | -25 | 19 | -4 | -4 | x | x | x | x
O=C(NCC(=O)N(c1cccnc1)C(C(=O)NC1CCCCC1)c1cccnc1)c1ccco1 (stereo unspecified) | -8 | x | 2 | 5 | -4 | x | i | 16
COc1cc(C(=O)NCC2CCCO2)ccc1OCc1ccccc1 (stereo unspecified) | -7 | x | 3 | 2 | -2 | -1 | i | 5
COc1cccc(N2C(=O)CC(N3CCC(c4nc5ccccc5[nH]4)CC3)C2=O)c1 (stereo unspecified) | -24 | -28 | 2 | 6 | -4 | -11 | i | 2
CCCC(=O)Nc1ccc(Cl)c(NC(=O)c2ccc(Br)o2)c1 | 32 | -38 | 8 | 0 | -8 | -6 | i | -9

Reprinted from the part before: 2 entries, followed by the next part.
SMILES | Yeast UUG start | Env fusion inh | MT1-MMP act inh | MT1-MMP act inh RFP | eIF4H FP inh | CSC inhib | Rce1 inh | PABP polyA inh | others
COc1cccc(N2C(=O)CC(N3CCC(c4nc5ccccc5[nH]4)CC3)C2=O)c1 (stereo unspecified) | -24 | -28 | 2 | 6 | -4 | -11 | i | 2
CCCC(=O)Nc1ccc(Cl)c(NC(=O)c2ccc(Br)o2)c1 | 32 | -38 | 8 | 0 | -8 | -6 | i | -9
O=C(NCCCl)NNC(=O)c1cc2ccccc2cc1O | x | 13 | 0 | 3 | 22 | 8 | i | 28
CCOc1ccc(C(=O)c2nc3c(n2O)CCCCC3)cc1 | -5 | x | 2 | 4 | -4 | -1 | i | 2
Cc1nnc(SC(C)C(=O)Nc2ccc3c(c2)OCCO3)s1 (stereo unspecified) | -3 | x | 1 | 1 | -2 | -14 | i | -1
COc1cccc(-c2cc(C(=O)N3CCN(c4ncccn4)CC3)c3ccccc3n2)c1 | -7 | x | -2 | -8 | 0 | 0 | i | 4
O=C(NCc1ccccc1)c1cccc(S(=O)(=O)N2CCCCC2)c1 | -5 | 1 | 0 | -1 | -11 | -8 | x | 4
C/C(=C\C(=O)c1ccc(Cl)cc1Cl)N(C)C | x | -25 | -1 | 6 | -5 | 1 | i | -3
COC(C[C@H]1O[C@@H]1[C@H](O)[C@H](C)OCc1ccccc1)OC | -16 | -62 | 1 | 5 | x | -1 | i | x
Cc1cccc(-c2nnc3sc(-c4ccccc4)nn23)c1 | 5 | -33 | 7 | 0 | 1 | -16 | i | 4
O=C1CCC(=O)N1CC1CC2CCC1C2 (stereo unspecified) | -15 | -5 | 1 | 8 | -7 | 7 | i | -4
C[C@@H](NC(=O)Cn1ccc(N)nc1=O)c1cccc2ccccc12 | -14 | -1 | 0 | 4 | x | -1 | x | x
COc1ccc(NC(=O)N2CCCc3cccc(C)c32)cc1 | -11 | 17 | 7 | -1 | -1 | -6 | i | 2
CCOc1ccc2nc(SCC(=O)Nc3ccc(S(=O)(=O)N4CCCC4)cc3)c(C)cc2c1 | 1 | 12 | -3 | -6 | -4 | -3 | i | 4
CCCCN(C)CCNC(=O)c1c[nH]c2ccc(S(=O)(=O)N(CC)CC)cc2c1=O | 0 | -30 | -6 | 1 | -3 | 1 | i | 3
COc1cc(OCc2ccccc2)c(OC)c(OCc2ccccc2)c1 | -1 | 7 | 1 | -3 | x | x | x | x
Cc1ccc(NC(=O)C2(c3ccccc3)CCOCC2)c([N+](=O)[O-])c1 | x | -6 | 5 | 8 | 5 | 1 | i | -1
COC(=O)Nc1ccc(S(=O)(=O)N2CCC(C(=O)NC3CCCCC3)CC2)cc1 | 1 | -7 | 1 | 2 | 1 | 0 | i | 3
Cc1cc(NC(=O)CCC(=O)N(c2cccc(F)c2)C(C(=O)NC2CCCC2)c2ccncc2)no1 (stereo unspecified) | 0 | x | -7 | -1 | -10 | x | i | 0
CC(=O)Nc1ccccc1OCCOc1ccc(Br)cc1 | x | 5 | -13 | -23 | -2 | 36 | i | -1
COc1ccccc1/C=C\C(=O)NCC(=O)N/N=C(\C)Cc1ccccc1 | x | 1 | 1 | 0 | 7 | -12 | i | -4
CCOc1ccc(CC(=O)N/N=C(\C)c2cccnc2)cc1 | -12 | 19 | 1 | -4 | -5 | 1 | i | 1
Cn1c(SCC(=O)N2CCOCC2)nc2sc3c(c2c1=O)CCCC3 | -18 | 37 | 6 | -4 | -4 | -16 | i | 9
CC(C)CC1C(=O)N(Cc2cn(CCC3OCCO3)nn2)CCS(=O)(=O)N1Cc1ccc(-c2ccc(Cl)c(Cl)c2)cc1 (stereo unspecified) | -7 | 1 | 0 | -14 | x | x | x | x
CC(=O)c1ccc(NC(=O)CN2CCC(C(=O)c3ccc4c(c3)OCCO4)CC2)cc1 | -1 | -13 | 6 | 2 | -2 | -7 | i | 1
CCOc1ccccc1NC(=O)CSc1nnc(CNC(=O)c2cccs2)o1 | -21 | 1 | 0 | 6 | 0 | -23 | i | 18
COC(=O)c1sc(C(F)(F)F)c(-c2ccccc2)c1S(=O)(=O)N1CCCC1 | 8 | 33 | 0 | -3 | 4 | -4 | x | -4
Cc1ccc(NC(=O)CN2C(=O)S/C(=C\C(=O)Nc3ccc(Cl)cc3)C2=O)cc1 | x | 8 | -1 | 1 | -13 | 1 | i | -7
Cc1ccc(S(=O)(=O)NCCN2CCNC2=O)cc1 | x | 7 | -3 | -1 | 6 | -9 | i | 14
O=C(COC(=O)c1cncc(Br)c1)Nc1nc(-c2ccc(F)cc2)cs1 | -12 | -33 | 2 | 4 | -5 | -7 | i | 2
